PINK1 expr mod: modulators of PINK1 expression | PINK1 immunofluorescence, high-content cytometry, 24 h | Potency, µM (top dose mostly 76.6 µM), for the others: at the top dose activation (PINK1 increase), usual class: activators | AID 624263 | actives 0.2% (n = 410,000); active = well fitted activation curve with a large enough effect; inconclusive = small, poorly fitted or top-dose-only effect; inactive = flat fitted curve, though single readings scatter; cell line not stated here;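 note: potency is the fitted concentration of half-maximal effect; % of control where 0% means no effect; nearly all actives have a fitted effect of over 65% in size; a mitochondrial uncoupler was the plate control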
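Cells are seeded, rested 12 hours, then given compound at five concentrations or DMSO for 24 hours. After fixation, blocking and antibody staining, PINK1 amount and mitochondrial localization are scored; CCCP serves as control.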
D2 potentiator: positive allosteric modulators of human D2 dopamine receptor; P14416; DiscoveRx D2 beta-arrestin cells, luminescence, 90 min; 100% = 57 uM dopamine signal; potentiation, % (concentration not given with the values); actives 0.23% (n = 360,000); AID 624464; active = potentiation of 50% or more; inconclusive = 30% to 50%; inactive = 30% or less;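 note: compound concentration not given in the record; tested on top of an EC20 dose of dopamine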
Target sequence (P14416 whole entry, looked up): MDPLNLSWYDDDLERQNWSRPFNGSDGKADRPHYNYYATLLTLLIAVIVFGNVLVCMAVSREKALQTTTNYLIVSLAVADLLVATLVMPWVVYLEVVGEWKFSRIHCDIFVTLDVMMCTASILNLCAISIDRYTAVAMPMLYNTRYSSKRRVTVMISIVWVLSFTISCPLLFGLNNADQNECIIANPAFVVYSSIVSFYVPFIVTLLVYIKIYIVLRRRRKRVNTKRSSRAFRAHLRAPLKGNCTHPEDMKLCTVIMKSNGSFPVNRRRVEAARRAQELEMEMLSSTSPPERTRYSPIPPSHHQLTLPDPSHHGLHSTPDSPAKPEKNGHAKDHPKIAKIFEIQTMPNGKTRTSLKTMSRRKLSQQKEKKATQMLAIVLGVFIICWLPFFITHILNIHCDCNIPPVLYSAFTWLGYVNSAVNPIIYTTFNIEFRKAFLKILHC
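PathHunter D2 cells, attached overnight at 37 deg C, received compound in DMSO plus dopamine at EC20 (50 nM final) for 90 min at 37 deg C. Beta-arrestin recruitment was read as luminescence after 1 h with detection reagent at ambient temperature.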
TRPML1 inh: inhibitors of human TRPML1 channel; actives 0.02% (n = 390,000); activity change, negative = inhibition, % (concentration not given with the values); AID 624415; TRPML1-inducible cells, Ca2+ dye fluorescence, FDSS; stronger effect = lower value; inhibition of EC80 agonist-evoked calcium signal; in the data active means activity change below about -50%; inconclusive means about -30% to -50%; inactive means above about -30%;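 note: stimulus is agonist 54-4 at its EC80 concentration; % is set by controls: 0 for no effect and ±100 for the full control effect; compound concentration not given in the record; the text of the record puts the active cut at -80%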
Target sequence (Q9GZU1 whole entry, looked up): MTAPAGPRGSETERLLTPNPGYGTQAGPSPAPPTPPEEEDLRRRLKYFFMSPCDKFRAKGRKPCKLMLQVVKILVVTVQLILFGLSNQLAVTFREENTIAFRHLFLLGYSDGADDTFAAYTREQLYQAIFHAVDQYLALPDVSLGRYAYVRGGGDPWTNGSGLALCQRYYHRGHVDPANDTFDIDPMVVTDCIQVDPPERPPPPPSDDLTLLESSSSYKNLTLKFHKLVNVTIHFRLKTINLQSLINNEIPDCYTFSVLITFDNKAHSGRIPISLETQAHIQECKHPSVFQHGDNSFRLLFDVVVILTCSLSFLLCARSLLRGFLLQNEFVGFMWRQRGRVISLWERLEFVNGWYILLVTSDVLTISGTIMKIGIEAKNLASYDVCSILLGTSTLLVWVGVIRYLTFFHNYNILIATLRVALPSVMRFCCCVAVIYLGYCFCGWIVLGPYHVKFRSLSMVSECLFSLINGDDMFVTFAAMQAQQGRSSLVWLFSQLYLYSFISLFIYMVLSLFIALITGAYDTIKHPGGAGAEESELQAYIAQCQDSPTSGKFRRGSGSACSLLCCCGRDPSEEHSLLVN
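Tet-induced TRPML1-DL cells loaded with Ca8 no-wash calcium dye were read kinetically on FDSS. Compound addition was followed by EC80 agonist 54-4 (4 uM final); inhibition was read over 110 s.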
D2 agonist: activates the human D2 dopamine receptor. P14416. DiscoveRx PathHunter D2 beta-arrestin, luminescence, 90 min; 100% = 57 uM dopamine signal. activation, % (test concentration not listed). actives 0.084% (n = 360,000). AID 624465; in the data active = activation above about 40%; inconclusive = about 15% to 40%; inactive = below about 15%; note: compound concentration not given in the record; the text of the record calls up to 30% inactive
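DiscoveRx PathHunter D2 beta-arrestin cells (2,100/well) attached overnight, then compound-stimulated 90 min at 37 C in HBSS/10 mM HEPES/0.1% Tween-20 buffer; beta-galactosidase complementation read by luminescence after 1 h at ambient temperature. Dopamine 57 uM final (EC100) as control.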
TRPML1 ag: human mucolipin-1 channel agonism. actives 0.12% (n = 410,000). TRPML1-expressing cells, Ca2+ dye fluorescence, FDSS; host cell line not named in the record; reference of the full effect not given here. activation, % (concentration not given with the values); in the data active = activation above about 50%; inconclusive = about 30% to 50%; inactive = below about 30%; note: 0% is about no effect; the text of the record puts the active cut at 80%
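TRPML1-DL cells, Tet-induced overnight (~16 h, 37 degrees C), loaded 45-90 min at room temperature with Ca8 no-wash calcium dye plus quencher. FDSS fluorescence: 10 s baseline, compound pin-transfer, 110 s agonist read, then EC80 54-4 (4uM final) and 110 s antagonist read.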
Six1-Eya2 blk: blocks human Six1 binding to Eya2 | AID 651725 | actives 0.56% (n = 360,000) | AlphaScreen GST-Six1/His-Eya2 binding, biochemical; stronger effect = lower value; control for the full effect not named in the record | activity change, % (concentration not given with the values) | Q15475+O00167; in the data active = activity change below about -65%; inconclusive = about -30% to -65%; inactive = above about -30%; note: % is set by controls: 0 for no effect and ±100 for the full control effect
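Homogeneous AlphaScreen proximity assay pairing GST-Six1 with His-tagged Eya2 (added as 5X mix: 250 nM and 500 nM) in 50 mM Tris pH 8.0, 300 mM NaCl, 1 mM TCEP. Glutathione donor and nickel acceptor beads; 1 h, 37 °C, dark.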
* hit, by the source's call; ? = inconclusive; . = no result given; [ ] = remark or other dose. Hits appear at their usual frequency; about 1% have a hit in one of these screens.

Structure,PINK1 expr mod,D2 potentiator,TRPML1 inh,D2 agonist,TRPML1 ag,Six1-Eya2 blk
O=C(CSc1nnc(Cc2cccs2)n1-c1ccc(Cl)cc1)NCc1ccc2c(c1)OCO2,-0.8%,-5.0,-11.2,-1.0,0.8,-0.1
Cc1nnc(C)n1/N=C/c1cccc(Oc2ccccc2)c1,-4.9%[38.3 µM],-7.9,-1.7,-0.8,1.0,4.2
COc1ccc(-c2csc(C(C)(O)c3ccccc3)n2)cc1 (stereo not given),8.7%,-4.2,.,-5.5,-0.5,13.3
CCOC(=O)c1sc(NC(=O)CSCc2c(C)noc2C)nc1C,2.0%,-3.1,29.3,10.4,2.8,-4.4
CCn1nnnc1SCC(=O)c1ccc2c(c1)OCCO2,2.4%,-20.2,-2.8,-2.9,-0.7,-1.1
Cc1cccc(-c2csc(N)c2C(=O)OC(C)C)c1,5.6%,-15.4,-16.4,-3.9,1.0,-5.8
CCC(C)[C@H]1CNC(=S)N1CCc1cccc2ccccc12 (stereo not given in full),2.0%,-1.8,15.4,-1.9,-0.6,-5.7
CCCCn1nc(NC(=O)COC)c2cc3cc(OC)ccc3nc21,3.1%,21.5,32.4,3.9,2.7,33.5
COc1ccc(C(=O)C2CCN(CC(=O)NCc3ccccc3)CC2)cc1,0.9%,-16.3,-2.6,-6.9,-0.8,-4.0
COC(=O)c1cc2c(ccn2-c2ccc(F)cc2)n1Cc1ccc(C#N)cc1,-2.0%,-4.9,9.6,-3.4,0.6,0.0
COc1cccc(NC(=O)Cn2c(CCC(=O)O)ccc2-c2ccccc2)c1,0.7%,-6.3,31.2,-3.7,0.9,-9.3
COc1cc(OC)cc(-c2nnc(SCC(=O)c3ccc([N+](=O)[O-])cc3)o2)c1,-1.8%,.,3.6,.,4.4,.
CCC(=O)N1CCN(c2nc3c(C)cccc3s2)CC1,0.2%,.,-2.4,.,1.2,.
O=C(NCC1COc2ccccc2O1)C1C2C=CC3(CN(Cc4cccs4)C(=O)C13)O2 (stereo not given),-0.8%,-10.5,-16.7,-6.8,0.5,0.8
CSCCC(NS(=O)(=O)c1ccc(Cl)cc1)C(=O)OCC(=O)N1CCCc2ccccc21 (stereo not given),3.6%,-5.9,1.7,-0.6,0.2,-16.5
CCOc1ccc(/C=C/c2nc(C#N)c(N3CCCCCC3)o2)cc1,0.0%,.,19.2,.,1.5,.
CCCCNC(=O)COC(=O)c1ccc(F)cc1Cl,0.0%,-0.1,-6.3,-2.8,0.4,-0.3
Cc1ccccc1S(=O)Cc1ccc(C(=O)NCc2ccccc2Cl)o1 (stereo not given),0.2%,.,-14.4,.,-0.6,.
CCOc1ccc(S(=O)(=O)NCCC(=O)NC(C)CCc2ccccc2)cc1 (stereo not given),-0.3%,-10.8,28.7,-4.4,1.9,0.3
CN1CCN(C2=Nc3c(Cl)cc(Cl)c4cccc2c34)CC1,-0.2%,-18.3,5.9,-3.5,3.6,-26.9
CS(=O)(=O)N(CC(=O)NCc1ccccn1)c1ccc2c(c1)OCCO2,1.6%[38.3 µM],-5.9,-16.7,-1.5,-0.1,5.2
Cc1cc(C(=O)Nc2c(F)cc(F)cc2Br)cs1,0.3%,-12.4,-19.3,-1.8,0.0,5.5
COC(=O)C1=C(C)Nc2c(c(=O)n(C)c(=O)n2C)C1c1ccc(C)cc1 (stereo not given),2.5%,-4.3,22.7,-1.7,-0.3,-13.6
COc1ccc(CCNc2c3ccccc3nc3ccccc23)cc1OC,6.5%,-11.8,21.8,-1.8,1.1,-15.7
Oc1cccc(/C=N/c2c(-c3ccco3)nc3ccccn23)c1,3.5%[38.3 µM],16.9,-11.5,8.7,1.3,-10.0
O=C(COC(=O)CCc1ccc(S(=O)(=O)N2CCOCC2)cc1)NC1CCCCCC1,1.5%,-11.2,-17.3,0.9,-0.5,0.3
COc1ccc(C(=O)NC(=S)N2CCC(C)CC2)cc1,-0.2%,-16.2,9.4,-0.5,3.6,3.3
COC(=O)C1=C(C)Nc2nnnn2C1c1ccc(Cl)cc1Cl (stereo not given),1.4%,-9.1,6.0,-2.5,-0.6,6.7
CCCC(=O)NC(NC(=S)Nc1ccc(N=Nc2ccccc2)cc1)C(Cl)(Cl)Cl (stereo not given),5.2%,-19.9,11.9,5.3,0.3,-19.4
Cc1cccc(N2CN(Cc3ccco3)CNC2=S)c1C,0.0%,-4.4,-8.8,-2.8,0.3,13.8
COc1cccc(NC(=O)NC(C)C2CC3CCC2C3)c1 (stereo not given),2.9%,-1.0,0.3,-0.3,0.2,1.8
NC(=O)c1ccccc1N,2.7%,-22.4,.,-2.6,.,1.1
COc1ccc(-c2ccc(/C=C3\C(=O)N(c4ccccc4)N=C3c3ccccc3)o2)c([N+](=O)[O-])c1,1.9%,-0.3,51.8,-4.5,-0.8,-3.4
Cc1ccc(NC(=S)NN2CCN(C)CC2)cc1,4.2%,-11.4,-5.3,-1.0,0.9,7.0
Cc1cc(C)cc(SCc2noc(C(=O)NCCC(C)C)c2C(=O)NCCC(C)C)c1,4.3%,-10.6,-3.8,-0.8,1.4,3.6
O=C(N/N=C/c1cccc(Oc2ccc([N+](=O)[O-])cc2[N+](=O)[O-])c1)c1cncc(Br)c1,.,85.0*,-6.1,7.2,-0.1,-3.6
O=C(COc1ccc(Cl)cc1Cl)N(Cc1ccco1)C1CCS(=O)(=O)C1 (stereo not given),0.8%[38.3 µM],-14.3,1.9,-1.0,-0.6,-0.7
Cc1ccc(S(=O)(=O)NCC(=O)N/N=C/c2ccc(Cl)cc2)cc1,6.5%,7.1,0.2,0.5,-0.2,-2.2
COc1cc(-c2nnc3sc(C4CCCCC4)nn23)cc(OC)c1OC,0.5%,-34.6,17.8,-1.6,5.5,-14.4
Cc1ccc(N2CCN(C(=O)c3cccs3)CC2)c(C)c1,0.8%,-4.2,32.2,-1.9,-0.6,4.1
Cc1ccc(C(O)Cn2cc([N+](=O)[O-])nc2C)cc1 (stereo not given),0.1%,-1.8,10.3,-0.6,0.5,-7.7
CC(C)c1ccc(NC(=O)C2(C)Cc3c(-c4ccc(N(C)C)cc4)ccnc3O2)cc1 (stereo not given),0.6%,1.0,.,-4.9,-0.2,?
COc1ccc(C(C)(C)C)cc1NC(=O)Cn1cnnn1,0.7%,-1.7,4.3,-2.5,-0.2,0.8
CCCC#Cc1ccc2c(c1)O[C@H](CN(C)S(=O)(=O)c1cccc(OC)c1)[C@H](C)CN([C@H](C)CO)S2(=O)=O,1.2%,1.6,40.4,-11.5,0.8,-12.8
CC1CCCN(Cc2c(O)ccc3c4c(c(=O)oc23)CCCC4)C1 (stereo not given),0.0%,-31.0,.,-4.6,.,0.0
Cc1ccc(C)c(NC(=S)Nc2cccc3cnccc23)c1,1.7%,-4.4,16.5,8.8,-0.7,-6.9
CC1(C)C2([N+](=O)[O-])CN3CC1([N+](=O)[O-])CN(C2)C3c1ccccc1 (stereo not given),-0.3%[38.3 µM],-7.4,19.3,-1.6,0.6,0.5
Cc1cc(C(=O)COC(=O)c2cc(Cl)ccc2N)c(C)n1Cc1ccco1,-0.1%,-3.7,19.7,-4.1,0.4,-12.0
CCOC(=O)c1ccc(N2C(=O)c3n[nH]c(-c4cccs4)c3C2c2ccc(CC)cc2)cc1 (stereo not given),?,.,-12.8,.,3.4,.
Cc1cc(Nc2ccccc2)n(C(=O)c2ccccc2)n1,0.4%,-0.9,-1.6,5.9,1.2,16.4
CC1CCN(C(=O)c2cccc(NC(=O)c3nsc4ccccc34)c2)CC1,-0.1%,.,-17.8,.,2.2,.
COc1cccc(C2(C)NC(=O)N(CC(=O)Nc3ccc(N4CCOCC4)cc3)C2=O)c1 (stereo not given),1.8%,1.3,6.1,2.0,0.3,0.1
O=C(O)CCCSc1nccn1-c1ccccc1,3.9%,2.8,-6.6,0.2,0.1,-4.6
O=C(CSc1nnc(-c2cccnc2)s1)Nc1ccnc2ccccc12,-1.1%,16.6,-29.5,1.9,-0.7,-10.3
CC(=O)Nc1ccccc1-c1nnc(SCc2ccccc2Cl)[nH]c1=O,.,-11.8,17.2,-2.1,0.7,-4.4
C[C@@H]1CN([C@@H](C)CO)C(=O)CCCn2nncc2CO[C@H]1CN(C)S(=O)(=O)c1cccs1,-0.2%,.,.,-2.9,.,3.1
COc1cc(Cc2nc3ccc(S(=O)(=O)N4CCOCC4)cc3[nH]2)cc(OC)c1OC,0.1%,24.6,2.3,0.1,3.4,0.6
CC(=O)c1cc2c(cc1NC(=O)CCc1c(C)nc3ncnn3c1C)OCO2,-2.3%,-3.1,-9.7,-1.0,0.8,-4.6
Cc1nn(-c2cccc(C(F)(F)F)c2)c(Cl)c1/C=N/Nc1cccc(C(=O)O)c1,-1.0%,8.1,17.5,2.6,0.9,-5.1
COCCCN(CC(=O)NCc1ccccc1)S(=O)(=O)c1ccc(C)cc1,-1.5%,-8.7,-16.6,1.0,0.8,-0.2

Later entries:
Structure,PINK1 expr mod,D2 potentiator,TRPML1 inh,D2 agonist,TRPML1 ag,Six1-Eya2 blk
COc1ccc(-c2cc3ccc(O)c(CN4CCCC4)c3oc2=O)cc1OC,1.1%,.,17.7,.,19.8,.
Cc1cccn2cc(CSc3nnc(Nc4ccc(C(C)C)cc4)s3)nc12,?,-4.3,-4.9,-2.2,2.4,-5.7
Cc1ccc(-c2cc(C(F)F)nc(N3CCOCC3)n2)cc1,7.9%,-5.3,24.9,0.6,3.1,49.4
O=C(CN1CCN(C(=O)c2ccccc2)CC1)Nc1ccc(Br)cn1,-0.4%,-16.9,17.5,-1.1,-0.6,7.0
COc1ccccc1/C=C/CN1CCCC(CO)(Cc2cccc(Cl)c2)C1 (stereo not given),-0.8%,-22.2,0.3,-2.8,0.1,-4.8
CC(Oc1ccc(Cl)cc1)c1ccc(C#N)c(=O)[nH]1 (stereo not given),0.2%,-3.8,4.9,-4.1,1.3,-7.8
O=C(NCCN1CCOCC1)C1CC(=O)N(c2cccc(C(F)(F)F)c2)C1 (stereo not given),3.9%,3.0,-0.8,-4.5,0.1,4.3
Cc1nnc(NC(=O)CSc2nnc3c(n2)[nH]c2ccccc23)s1,0.6%,.,13.1,.,0.7,.
CC1Cc2cc(/C(O)=C3\C(=O)C(=O)N(CCN(C)C)C3c3ccccc3F)ccc2O1 (stereo not given),-1.4%[38.3 µM],-1.8,-1.4,-4.8,-0.7,0.9
Clc1ccc2nc(-c3ccncc3)cc(-c3ccccc3)c2c1,5.2%,6.5,-14.5,-0.7,2.2,3.4
Cc1cc(C)nc(NC(=O)c2cc(Br)ccc2Cl)n1,3.7%,0.3,2.5,3.8,-0.2,1.1
CN(C)CCn1c(N)nc2ccccc21,1.3%,-6.7,1.0,-7.6,-0.3,-5.7

From PubChem
